Assay outcomes (PubChem)
VDR inh = blocks the human vitamin D receptor. P11473. VDR-SRC2-3 peptide fluorescence polarization, 2 h. Potency, µM, for the others: max response, negative = inhibition, most hits filed as inhibitors. 400,000 tested, 0.93% active; active means well fitted inhibition curve with a large enough effect; inconclusive means small, poorly fitted or top-dose-only effect, or another doubt; inactive means no such curve, though single readings can be large or run the other way; further: series mostly up to about 120 µM
Target sequence (P11473 whole entry, looked up): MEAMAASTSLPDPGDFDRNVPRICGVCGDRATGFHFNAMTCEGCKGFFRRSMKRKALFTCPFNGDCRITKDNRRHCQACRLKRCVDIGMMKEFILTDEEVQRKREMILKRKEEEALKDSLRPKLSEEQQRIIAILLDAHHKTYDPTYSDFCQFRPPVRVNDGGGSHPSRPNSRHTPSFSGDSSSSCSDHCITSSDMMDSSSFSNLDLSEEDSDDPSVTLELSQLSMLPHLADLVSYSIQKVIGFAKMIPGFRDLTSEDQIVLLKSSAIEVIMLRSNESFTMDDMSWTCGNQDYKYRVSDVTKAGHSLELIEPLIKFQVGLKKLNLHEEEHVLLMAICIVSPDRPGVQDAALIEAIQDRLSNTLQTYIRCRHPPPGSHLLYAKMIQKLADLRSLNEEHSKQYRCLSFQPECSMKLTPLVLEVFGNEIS
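Two reagent solutions held at 4 deg C in the dark were dispensed, compounds pinned at 23 nl, and the mixture incubated 2 h at room temperature. Read-out: fluorescence polarization of VDR–SRC2-3 peptide binding.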
An asterisk follows results filed as active; ? = inconclusive; & = joins results of further samples. On the % scale 0 is the no-effect control and ±100 the full control effect; potency means the concentration at half of the fitted maximal effect.

SMILES	VDR inh
N#Cc1c(C#N)c(SSc2c(C#N)c(C#N)c(N)n2-c2ccccc2)n(-c2ccccc2)c1N	?
COc1ccc(-c2nnc(SCC(=O)NCc3ccco3)o2)cc1	-9%
CSc1ccccc1NC(=O)CN(C)CC(=O)Nc1ccc(Cl)cc1F	-22%
CC(=O)N1CCN(S(=O)(=O)c2cccc(C(=O)NNC(=O)Cn3ccc(C(F)(F)F)n3)c2)CC1	1%
CCCCN1C(=O)/C(=C2\SC(N3CCCCC3)=NC2=O)c2ccccc21	-22%
Cc1ccc(S(=O)(=O)N(C)C)cc1NC(=O)COC(=O)Cc1ccccc1F	11%
Cc1c(Cl)cccc1NC(=O)COCc1cc(-c2ccc3c(c2)OCO3)on1	8%
O=C(Cn1cnc2c(nc3n2CCCCC3)c1=O)Nc1ccc(F)c(Cl)c1	-11%
CCN(C(=O)CSc1nc2ccccc2n1CC(=O)N1CCCC(C)C1)c1ccccc1 (stereo not given)	6%
O=C(N=C1SC2CS(=O)(=O)CC2N1Cc1ccccc1)C1CCCCC1 (stereo not given)	-7%
Cc1nc2nc(CSc3nnc(C)s3)cc(=O)n2[nH]1	-3%&-4%
COc1ccc(NC(=O)C/C(C)=N/NC(=O)COc2ccc(OC)cc2)cc1	6%
Cc1cccc(CNc2ncncc2-c2ccccc2Cl)c1	-20%
CCOC(=O)C1CCN(S(=O)(=O)c2ccc3c(c2)CC(C)N3C(=O)C2CCC2)CC1 (stereo not given)	-9%
COc1ccc(C(C(=O)NC(C)C)N(C(=O)CCC(=O)Nc2nccs2)c2ccccc2F)cc1 (stereo not given)	-15%
CN1CCN(C2CCCCC2NS(=O)(=O)c2ccccc2)CC1 (stereo not given)	-2%
COc1cc(C(=O)n2cnc3ccccc32)c([N+](=O)[O-])cc1OC	-9%
CCCCOc1ccc(C(=O)NC)cc1	3%
O=C(Cc1ccc(S(=O)(=O)N2CCOCC2)s1)N1CCN(S(=O)(=O)c2ccc(Cl)cc2)CC1	17%
CC(C)CC(=O)Nc1cccc(-c2nc3ccccc3[nH]2)c1	?
Cc1ccc(NC(=O)C(=O)NN)cc1	25%
CCc1ccc(-n2c(=O)c3c4c(sc3n(Cc3ccccc3C#N)c2=O)CCC4)cc1	1%
Cn1ncc(Cl)c1C(=O)Nc1cc(C(F)(F)F)ccc1F	-8%
COc1ccc(OCCCn2c(=O)oc3ccc(C)cc32)cc1	9%
Cc1cccc(CCNS(=O)(=O)c2ccc(S(=O)(=O)NC3CCCC3)cc2)c1	1%
Cc1ccc2nc(SCC(=O)c3c[nH]c4ccccc34)[nH]c2c1	-11%
COc1cc2[nH]c3c(OC)ncnc3c2cc1OC	11%
Cc1ccc(-c2cccc(NC(=O)C3C4C=CC(C4)C3C(=O)O)c2)o1 (stereo not given)	-8%
COCc1[nH]nc2c1C(c1sccc1C)C(C#N)=C(N)O2 (stereo not given)	-4%
CSc1nc(O)c(N=Nc2ccc(F)cc2F)c(=O)[nH]1	-16%
Cn1cc(C(c2ccccc2)c2ccc(Cl)s2)c2ccccc21 (stereo not given)	-15%
Cc1ccccc1N/N=C/c1ccc(N2CCOCC2)cc1	?
O=C(CSc1nc2ccccc2c(=O)n1-c1ccc(F)c(Cl)c1)Nc1cccc(S(=O)(=O)N2CCOCC2)c1	1%
Cn1ncc(C#N)c1/N=C/N1CCCC1	-9%
Cn1cnnc1Sc1ccc(C(=O)OCC(=O)Nc2ccccc2)cc1[N+](=O)[O-]	-8%
Cc1cc(C)cc(C(=O)OCC(=O)Nc2ncccn2)c1	-18%
Cc1ccc(S(=O)(=O)N2CC=C(C(=O)NCc3ccccc3)CC2)cc1	-16%
Clc1ccc(Cl)c(OCc2cc(-c3ccccc3Cl)on2)c1	6%
CCOc1ccc(CC(=O)NCc2cn3c(C)csc3n2)cc1	-5%
COc1ccc(C2/C=C\CN(C(=O)C3CCCC3)[C@H](Cc3ccccc3)C(=O)N2Cc2ccc(F)cc2)cc1 (stereo not given in full)	2%
CCOc1nc(OCC)nc(N2CCC(C)CC2)n1	-3%
CCC(=O)NCCc1c[nH]c2ccccc12	7%
COC(=O)[C@]1(C)N[C@H](CN(C)S(=O)(=O)c2ccc(F)cc2)[C@@H]2C(=O)N(Cc3ccccc3)C(=O)[C@@H]21	-9%
Cc1cc(CNCc2c(C(=O)N3CCCCCCC3)nc3ccc(Cl)cn23)nn1C	-13%
O=C(O)c1cc(O)ccc1-c1ccc(O)cc1	8%
O=C(O)C1CCCCC1C(=O)Nc1ccccn1 (stereo not given)	-2%
CC1CCN(CC(O)COCCC23CC4CC(CC(C4)C2)C3)CC1 (stereo not given)	-7%
CCc1ccccc1NC(=O)Nc1ccc2snnc2c1	-8%
COc1ccc(NC(=O)C2CC(c3cc(OC)c(OC)c(OC)c3)=NO2)cc1OC (stereo not given)	-4%
CCOC(=O)c1nnc(-c2ccccc2)[nH]c1=O	1%
CC1Cc2ccccc2N1Cc1cccc([N+](=O)[O-])c1 (stereo not given)	13%
CCOc1ccccc1N1CCN(C(=S)NCc2ccc(Cl)cc2)CC1	-3%
NC(N)=NS(=O)(=O)c1ccc(NC(=S)NC(=O)Cc2ccc(Cl)cc2)cc1	-12%
CCCn1nc(NC(=O)CC(C)C)c2cc3ccccc3nc21	-9%
O=C(CN1C(=O)CSC1=O)N1CCCC(Nc2ccc(F)cc2)C1 (stereo not given)	?
O=C(Cc1cccc2ccccc12)Nc1c(F)cccc1F	-9%
COc1cccc(-c2cc(C(=O)Nc3cc(OC)c(OC)c(OC)c3)on2)c1	0%
COc1ccc(/C=N/NC(=O)CSc2n[nH]c(=O)[nH]c2=O)cc1	-29%
c1cnc2c(c1)ncc1cscc12	-11%
CC1CCN(CC(=O)Nc2cc(C(F)(F)F)ccc2Cl)CC1	-2%

Copied from the list:
Entry for `CC1CCN(CC(O)COCCC23CC4CC(CC(C4)C2)C3)CC1` (stereo not given) in VDR inh: -7%
Entry for `O=C(O)c1cc(O)ccc1-c1ccc(O)cc1` in VDR inh: 8%
Entry for `O=C(CSc1nc2ccccc2c(=O)n1-c1ccc(F)c(Cl)c1)Nc1cccc(S(=O)(=O)N2CCOCC2)c1` in VDR inh: 1%

(further entries)
SMILES	VDR inh
COc1ccc(C(C(=O)NC(C)(C)C)N(CCc2ccc(OC)c(OC)c2)C(=O)CCC(=O)Nc2cc(C)on2)cc1 (stereo not given)	6%
Cc1cccc2c1-c1sc(C(=O)Nc3cccnc3)cc1CO2	11%
Oc1nc(Nc2cccc(Cl)c2)sc1/C=C1\C=Nc2ccccc21	0%
Fc1ccc(-c2[nH]ncc2CN(CC2CCC2)CC2CCCO2)c(F)c1 (stereo not given)	7%
Cn1cccc1Cc1nnc(SCC(=O)NC2CCCC2)n1CCc1ccccc1	-7%
CCSc1nnc(NC(=O)CSc2nnc(C)c(=O)n2N)s1	-10%
C/C(N)=C(/C#N)C(=O)COC(=O)CNS(=O)(=O)c1ccc(C)cc1	-16%
COc1ccc(CC(=O)NNS(=O)(=O)c2cccc([N+](=O)[O-])c2)cc1OC	11%
CC(=O)c1c(C)n(-c2ccccc2)c2ccc(O)cc12	-9%
CC(C)(C)c1ccc(OC(=O)Nc2ccc(O)c(C(=O)O)c2)cc1	-3%
CC(C)(C)c1ccc(C2CC2C(=O)N/N=C\c2ccc[nH]2)cc1 (stereo not given)	5%
COCCNS(=O)(=O)c1ccc2c(c1)C(=O)c1cc(S(=O)(=O)NCCOC)ccc1-2	-13%
COc1cccc(NC(=O)Cn2cc(C(=O)c3ccco3)c3ccccc32)c1	-30%
COc1ccc2c(CC(=O)NC(Cc3ccc(Cl)cc3)C(=O)O)cc(=O)oc2c1C (stereo not given)	-2%
COc1ccc(CCNC(=O)CN(c2ccccc2OC)S(=O)(=O)c2ccc(C)cc2)cc1	-2%&-13%
CC(=O)Nc1ccc(S(=O)(=O)N(C)CC(=O)OCC(=O)NC(C)C23CC4CC(CC(C4)C2)C3)cc1 (stereo not given)	1%
CNC(=O)c1ccc(-n2cccn2)nc1	6%
CCN(CC)S(=O)(=O)c1ccc(N2CCOCC2)c(NC(=O)COc2ccc(OC)cc2)c1	6%
CCOC(=O)/C=C(C)\C=C\c1c[nH]c2ccccc12	-14%
CCOc1ccc(CNC(=O)C2CCCN(c3nn4cc(-c5ccc(F)cc5)nc4s3)C2)cc1 (stereo not given)	12%
O=C1C=C(/C=C/C2C=CC=CC2)C[C@@H](c2ccc(Cl)cc2)C1 (stereo not given in full)	-13%
COc1ccc(Cc2nnc(SCC(=O)N(c3ccccc3)C(C)C)n(N)c2=O)cc1	4%
CCOC(CNC(=O)c1ccc2c(c1)nc(C)n2-c1cccc(F)c1)OCC	-11%
Cc1nc2oc3ccccc3c(=O)c2c(=O)n1Cc1ccccc1	-7%
CCOC(=O)c1c(C)[nH]c(C)c1S(=O)(=O)N1CCC(C(=O)Nc2ccc(C)cn2)CC1	-1%
CCc1c(C)sc2c1CCN(C(=O)Nc1ccccc1C(=O)OC)C2c1ccc(OC)cc1 (stereo not given)	7%
O=C(CN1c2cccc3cccc(c23)S1(=O)=O)Nc1ccc(S(=O)(=O)N2CCOCC2)cc1	2%
O=C(c1ccccc1)c1ccc(C(=O)N2CCN(c3ccccc3)CC2)cc1	7%
COc1cc(OC)c(-c2nc3c[n+](CC(=O)c4ccccc4)ccc3n2C)cc1OC	15%
C=CC[C@@H](CC(=O)NCCO)C(=O)N[C@@H](C)COC(=O)[C@H](CC=C)CC(=O)OC(C)(C)C	0%

3 compounds picked at random from the list so far:
SMILES	VDR inh
CC(=O)Nc1ccc(S(=O)(=O)N(C)CC(=O)OCC(=O)NC(C)C23CC4CC(CC(C4)C2)C3)cc1 (stereo not given)	1%
Cc1cccc2c1-c1sc(C(=O)Nc3cccnc3)cc1CO2	11%
O=C(c1ccccc1)c1ccc(C(=O)N2CCN(c3ccccc3)CC2)cc1	7%

By substructure, those above containing a CF3 group (3)
SMILES	VDR inh
CC(=O)N1CCN(S(=O)(=O)c2cccc(C(=O)NNC(=O)Cn3ccc(C(F)(F)F)n3)c2)CC1	1%
Cn1ncc(Cl)c1C(=O)Nc1cc(C(F)(F)F)ccc1F	-8%
CC1CCN(CC(=O)Nc2cc(C(F)(F)F)ccc2Cl)CC1	-2%

Going on with the list:
SMILES	VDR inh
CCOC(=O)c1c(Cc2ccc(Cl)cc2)c[nH]c1C	10%
COc1ccccc1N1CCN(C2=Nc3cccc4cccc2c34)CC1	14%
N#Cc1c(-c2ccccc2)cc(-c2ccccc2)nc1SCC(=O)NCC(=O)O	?
COCCCNC(=S)N/N=C/c1cccc(OC)c1O	-11%
CCc1ccc(NS(=O)(=O)c2ccc3oc(=O)ccc3c2)cc1	10%
COC(=O)c1ccccc1NS(=O)(=O)c1ccc(Cl)nc1	14%
Cc1ccc(-n2c(SCC(=O)N3CCCCC3)nc(O)cc2=O)cc1	-7%
C/C=C(\C)C(=O)Nc1cccc(C2=NOC3(C2)C[C@H](C(N)=O)N(C(=O)c2cc([N+](=O)[O-])cc([N+](=O)[O-])c2)C3)c1 (stereo not given in full)	-8%
Cc1cccn2c(=O)c3cc(C(=O)NCCN4CCOCC4)c(=N)n(CCCN4CCOCC4)c3nc12	-8%
COc1ccc(OC)c(-n2c(SCC(=O)Nc3cccc(S(N)(=O)=O)c3)nc3ccccc3c2=O)c1	22%
N#CCOc1nc(N2CCCCC2)nc(N2CCCCC2)n1	-13%
CC(NC(=O)CCC(=O)Nc1ccccc1O)c1ccccc1 (stereo not given)	17%
CCOC(=O)[C@@H]1[C@H]2COc3ccc(Br)cc3[C@H]2N2C(=O)N(c3ccc(C)cc3)C(=O)[C@]12C	-21%
COc1ccc2ccccc2c1/C=N/NC(=O)c1cccc([N+](=O)[O-])c1	-1%
CN(C1CCCCC1)S(=O)(=O)c1ccc2c(c1)c(=O)c(C(=O)NCCCN1CCCC1)cn2C	-7%
O=C(NCCc1csc(-c2cccc(F)c2)n1)c1cccs1	-1%
CCN(CC(=O)N1CCCC1)S(=O)(=O)c1ccc(OC)cc1	4%
CC1CC(C)CN(C(=O)C(NS(=O)(=O)c2ccc3c(c2)oc(=O)n3C)C(C)C)C1 (stereo not given)	-4%
COc1ccc(NC(=O)COC(=O)C2CC3C=CC2C3)cc1 (stereo not given)	6%
O=C(N/N=C/C(Br)=C/c1ccccc1)C1CC1	?
CC(C)CCNC(=O)COC(=O)c1ccc(Br)o1	5%
Cc1cc(NC(=O)Cn2c(=O)c3c(ncn3CCC(C)C)n(Cc3ccccc3)c2=O)no1	-10%
OC(c1cccs1)c1nccc2ccccc12 (stereo not given)	12%
O=[N+]([O-])c1ccc(F)cc1OCc1cccc(S(=O)(=O)N2CCOCC2)c1	-9%
Cc1cc2oc(C(=O)N(Cc3ccc(N(C)C)cc3)CC3CCCO3)c(C)c2cc1Cl (stereo not given)	9%
Cc1nc(SCC(=O)NCc2ccc3c(c2)OCO3)c(C#N)c2c1CCCC2	1%
COc1cccc(CNc2ccc(S(N)(=O)=O)cc2)c1OCc1ccccc1F	-14%
Cc1cccc(C(=O)NC2CCN(S(=O)(=O)c3ccccc3)CC2)c1	-3%
C#CCOCCOCCOCCNc1nc(N2CCN(C(=O)[C@H]([C@@H](C)CC)n3cc([C@@H](N)Cc4ccc(O)cc4)nn3)CC2)nc(N2CCN(C(=O)[C@H]([C@@H](C)CC)n3cc([C@@H](N)Cc4ccc(O)cc4)nn3)CC2)n1	-8%
Cc1nc2ccc(NS(=O)(=O)c3ccc(F)c(C)c3)cc2[nH]1	3%

Not all compounds are listed; the hit share may differ from the screen's.
